Screening data from PubChem BioAssay.
CSC inhib: blocks cancer stem cells. cancer stem cell-like cells viability, luminescence. inhibition, % at 7.5 µM. 1.1% of 300,000 active;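 active = mean at 75% or more and at least half the replicates too; inconclusive = mean and replicates disagree; tested in HMLE shEcad cells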;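 note: 0% = median of negative and 100% = median of positive control wells; the first replicate is given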
Yeast UUG start: alters start codon recognition fidelity in yeast; S. cerevisiae UUG-firefly luciferase reporter, luminescence/redox ratio; activity score, % at 18.7 µM; 0.13% of 350,000 active; AID 602363;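 active = replicate mean at a twofold rise or more, about +100% in these data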;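 note: firefly luciferase made from a UUG start codon reports start codon fidelity; reporter light over untreated wells divided by growth signal over untreated wells; some hits fall short of that in this replicate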
PABP polyA inh: PABP-poly(A) binding inhibition. P11940. PABP-poly(A) RNA binding, fluorescence polarization. inhibition, % at 35 µM. 1% of 290,000 active;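 active = 50% or more with normal probe brightness, or confirmed in later tests; inconclusive = above 50% with abnormal brightness, or retests that disagree; inactive = below 50% or failed in later tests; about a fifth of its hits are not listed in these tables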;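 note: calls also rest on retests at 20 µM and on dose response follow-up; controls were probe without protein and protein plus probe with vehicle; some compounds called inactive have numbers as strong as hits; many hits fall short of the cut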
Target sequence (P11940 whole entry, looked up): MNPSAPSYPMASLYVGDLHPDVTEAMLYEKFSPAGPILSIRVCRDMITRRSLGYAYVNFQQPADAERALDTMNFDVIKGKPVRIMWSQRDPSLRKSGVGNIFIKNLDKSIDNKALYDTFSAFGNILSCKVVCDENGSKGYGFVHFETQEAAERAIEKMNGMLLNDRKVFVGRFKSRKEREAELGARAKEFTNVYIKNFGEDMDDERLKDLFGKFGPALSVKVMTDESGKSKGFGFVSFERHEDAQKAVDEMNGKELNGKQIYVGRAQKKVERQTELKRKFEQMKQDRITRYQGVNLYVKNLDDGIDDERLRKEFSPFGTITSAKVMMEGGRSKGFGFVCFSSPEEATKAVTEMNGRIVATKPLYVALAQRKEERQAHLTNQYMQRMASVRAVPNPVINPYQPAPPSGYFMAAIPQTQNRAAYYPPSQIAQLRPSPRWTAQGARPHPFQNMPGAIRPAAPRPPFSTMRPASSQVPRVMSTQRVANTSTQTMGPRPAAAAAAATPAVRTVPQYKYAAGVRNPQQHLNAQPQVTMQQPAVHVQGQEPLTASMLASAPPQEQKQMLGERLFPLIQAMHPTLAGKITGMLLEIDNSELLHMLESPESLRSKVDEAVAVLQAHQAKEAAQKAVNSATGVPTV
Rce1 inhib: inhibitors of yeast Ras-converting enzyme; yeast membranes, quenched prenylated peptide cleavage fluorescence; Q03530; 0.27% of 290,000 active; calls only;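 active = fall in fluorescence gain of 50% or more versus controls, with final raw signal at or below 3038400; inconclusive = same 50% fall but final raw signal above 3038400; inactive = fall in fluorescence gain under 50%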;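 note: plate controls were neutral control wells for no effect and wells lacking membranes for full effect; tested at 10 µM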
Target sequence (Q03530 whole entry, looked up): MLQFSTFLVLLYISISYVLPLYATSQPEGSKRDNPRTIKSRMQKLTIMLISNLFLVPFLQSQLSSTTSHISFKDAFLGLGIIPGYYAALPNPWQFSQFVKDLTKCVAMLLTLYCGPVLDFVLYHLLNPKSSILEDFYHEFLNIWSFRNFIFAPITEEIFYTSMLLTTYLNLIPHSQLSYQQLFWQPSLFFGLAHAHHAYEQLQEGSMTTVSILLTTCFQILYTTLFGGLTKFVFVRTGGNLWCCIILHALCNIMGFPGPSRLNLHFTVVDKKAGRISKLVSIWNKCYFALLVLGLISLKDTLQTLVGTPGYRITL
Env fusion inh: blocks HIV Env-driven cell-cell fusion; HeLa-JRFL Env/CEM21 cell fusion, luciferase; inhibition, % at 12.3 µM; 1.1% of 360,000 active; AID 651610;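 active = mean replicate inhibition score of at least 50 and every replicate individually at or above 50; inconclusive = only one of the two criteria met; inactive = mean below 50 and not all replicates reaching 50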;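 note: 0% = plate neutral controls and 100% = maraviroc near 300 nM; one replicate is shown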
eIF4H inh: inhibitors of RNA binding by human eIF4H | Q15056 | eIF4H fluorescence polarization binding assay | inhibition, % at 35 µM | 0.94% of 290,000 active | AID 2012;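 active = 50% or more with normal probe brightness, or confirmed in later tests; inconclusive = above 50% with abnormal brightness, or retests that disagree; inactive = below 50% or failed in later tests; about a fifth of its hits are not listed in these tables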;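 note: calls also rest on retests at 20 µM and on dose response follow-up; 0% = protein and probe with vehicle and 100% = probe without protein; strong numbers were not always called active; many hits fall short of the cut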
MT1-MMP act inh: blocks activation of human MT1-MMP; HT1080 RFP-PRO-GFP cells, GFP/RFP ratio fluorescence, overnight; percent of plate control window, DMSO zero; GFP/RFP ratio change, % at 20 µM; 0.061% of 360,000 active; AID 651647;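 active = GFP/RFP ratio change of at least 30% with cell ATP level not reduced by more than half and red fluorescence within 50% of control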; note: strong numbers were not always called active
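Compound: 20 µM single dose, 1% DMSO / System: HT1080 RFP-PRO-GFP cells / Controls: DMSO and RFP-L50D-GFP cell wells / Read-out basis: GFP/RFP fluorescence ratio / Schedule: overnight compound exposure at 37 °C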
eIF4H inh retest: further read-out of eIF4H inh, marked with its call; inhibition, %; compound at 20 µM; confirmation average;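 mean of two retest wells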
PABP polyA inh retest: also measured in PABP polyA inh; calls as there; inhibition, %; compound at 20 µM; confirmation repeats;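 mean of two retest wells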
MT1-MMP act inh RFP: also measured in MT1-MMP act inh; calls as there; RFP signal change, %; measured here: RFP expression control read;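 0 = vehicle wells; hits needed this value within 50% of zero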
Numbers without * were called inactive; i = inactive; u = inconclusive; x = not tested or not shown. A portion of the library; the hit share may differ from the screen's.

SMILES | CSC inhib | Yeast UUG start | PABP polyA inh | Rce1 inhib | Env fusion inh | eIF4H inh | MT1-MMP act inh | MT1-MMP act inh RFP | others
CCOC(=O)c1nc(-c2ccc3c(c2)OCO3)[nH]c1C | 17 | -7 | -9 | i | -174 | 2 | -3 | -1
Cc1c(C(=O)N2CCNCC2)oc2ccccc12 | -9 | -3 | 14 | i | u | 1 | -1 | 3
O=C1CCCc2nc(N3CCc4ccccc43)ncc21 | -2 | -14 | 1 | i | -129 | -1 | -2 | -1
COc1ccccc1CN(C)C(=O)COC(=O)c1c(C)noc1C | -15 | 0 | x | x | 6 | x | 2 | -3
CCOc1cc(N2CCOCC2)c(OCC)cc1NC(=O)COC(=O)c1ccc(Cl)nc1 | -11 | -21 | x | x | 4 | x | 4 | 7
CCCC(=O)N1CCN(Cc2ccc3c(c2)OCO3)CC1 | -4 | -9 | 9 | i | x | -5 | 1 | 8
CSCC[C@H](NC(=O)N1CCn2c1nc1ccccc12)C(=O)NCc1ccc(C)cc1 | -10 | -15 | x | i | -2 | x | 5 | 0
O=C(NC1CCCCC1)C(c1ccco1)N(C(=O)C(F)(F)F)C1CC1 (stereo not drawn) | -19 | -17 | -3 | i | -92 | -6 | -4 | -8
COc1ccc(S(=O)(=O)N2CCCCC2)cc1NC(=O)CNc1ccccc1N1CCCC1=O | x | -8 | x | x | 5 | x | 1 | 4
CCOc1ccc(NC(=O)CSc2nnc(CNC(=O)c3cccs3)o2)cc1 | -19 | -25 | 5 | i | 2 | 4 | 4 | 4
CCCCN(C1CCS(=O)(=O)C1)S(=O)(=O)c1ccc(C(C)C)cc1 (stereo not drawn) | 5 | -4 | x | i | 14 | x | -6 | 0
S=c1nc(NCc2cccc(Cl)c2)c2ccccc2[nH]1 | x | -9 | -4 | i | 18 | 0 | -6 | -9
COc1ccc(OC)c(NC(=O)COC(=O)c2n[nH]c3ccccc23)c1 | -6 | -12 | x | x | 5 | x | 0 | -8
COc1ccc(N(CC(=O)Nc2ccc(OC)c(Cl)c2)S(=O)(=O)c2c(C)noc2C)cc1 | 14 | -7 | -7 | i | -51 | 0 | -4 | -6
Cc1cccc(CCNC(=O)C2CCN(S(=O)(=O)c3ccccc3)CC2)c1 | -7 | x | -6 | i | -9 | -18 | 2 | 3
Cc1ccc2nc(SCC(=O)N(CC(C)C)c3c(N)n(CC(C)C)c(=O)[nH]c3=O)[nH]c2c1 | -9 | -15 | 10 | i | x | 3 | 2 | 8
Cc1cn([C@H]2C[C@H](O)[C@@H](CCC(=O)NCc3ccco3)O2)c(=O)[nH]c1=O | x | -16 | x | x | 4 | x | 2 | 8
O=C(NCCN1CCOCC1)c1ccc(=O)oc1 | -12 | -5 | 6 | i | -5 | 0 | -2 | -3
O=C(Cc1ccc(-n2c(=O)c3sccc3n(CC(=O)Nc3ccccc3)c2=O)cc1)NCc1ccco1 | -4 | -15 | -1 | i | -14 | 8 | 3 | -2
O=C(CN1CCCCC1)Nc1cc(Cl)ccc1Oc1ccccc1 | 72 | x | -13 | i | 16 | -5 | -7 | -6
Cc1csc(NC(=O)CCc2c(C)nc3cc(-c4ccc(Cl)cc4)nn3c2C)n1 | 29 | -5 | -7 | x | 39 | 1 | -4 | -9
C[C@@H](CSc1ccccc1)CN1CC[C@H](NC(=O)OCc2ccccc2)CCC1=O | -5 | 0 | -6 | i | -7 | 4 | 6 | -5
CN(C)c1ccc(Nc2nc(N)c([N+](=O)[O-])c(N3CCOCC3)n2)cc1 | 9 | x | -2 | i | 7 | -4 | 2 | -2
O=C(NCCN1CCOCC1)c1cnn2c(-c3ccccc3)cc(-c3ccccc3)nc12 | 9 | x | -1 | i | -43 | 10 | -8 | -5
CC(C)(C)OC(=O)NCc1ccc(NC(=O)c2nc[nH]c2C(=O)NCCCCNC(=O)c2[nH]cnc2C(=O)Nc2ccc(CNC(=O)OC(C)(C)C)cc2)cc1 | 120* | -14 | x | x | x | x | -13 | -1
COc1ccc(-c2noc(CN3CCCCC3c3nccn3C)n2)cc1 (stereo not drawn) | -6 | -18 | 3 | x | 5 | -12 | 2 | -3
O=C(CCNS(=O)(=O)c1ccccc1F)NCc1ccc2c(c1)OCO2 | 0 | -3 | 0 | i | x | -3 | -5 | 4
COc1ccc(S(=O)(=O)N2CCOC2CNC(=O)C(=O)NCCc2ccccc2OC)cc1C (stereo not drawn) | -2 | -14 | -6 | i | x | -8 | 3 | -9
CCN(c1ccc(NC(=O)CCc2nc3sc4c(c3c(=O)[nH]2)CCCC4)cc1)C(C)C | u | -3 | x | i | 7 | x | 3 | 1
O=C(N/N=C/c1ccccc1O)C(=O)N1CCCCCC1 | 20 | -13 | -15 | x | 2 | 4 | 2 | 0
CCOc1ccc(Nc2oc(-c3cccs3)nc2C#N)cc1 | 10 | -17 | -7 | i | x | -8 | -2 | -3
Cc1cc(Cl)ccc1OCC(=O)Nc1ccc(CN2CCOCC2)cc1 | x | -12 | -6 | i | x | -8 | 5 | -4
CCC(=O)c1ccc(OCC(O)CN2CCN(S(=O)(=O)N3CCCCC3)CC2)cc1 (stereo not drawn) | -6 | -3 | -8 | i | x | 0 | 1 | -2
COc1ccc(-c2nc(NC(=O)CSc3nnc4ccccn34)ns2)cc1 | -1 | x | 6 | i | x | 2 | x | x
CCOC(=O)C(C#N)=C1CCN(Cc2ccccc2)CC1 | -22 | -13 | 49 | i | 16 | 81 | -3 | 4 | eIF4H inh retest=17;PABP polyA inh retest=44
O=C(c1ccc(NC2=NC3CS(=O)(=O)CC3S2)cc1)N1CCc2ccccc2C1 (stereo not drawn) | -1 | -5 | -7 | i | 0 | 11 | 2 | 7
Cc1ccccc1NS(=O)(=O)c1nnc(NC(=O)c2ccccc2C)s1 | 3 | -5 | 4 | i | x | 2 | -1 | -1
O=C(CNC1CCCCC1)Nc1cccc(C(F)(F)F)c1 | -8 | -2 | -7 | i | 22 | -6 | 0 | 4
CC(=O)Nc1ccccc1OCC(=O)NC(C)c1ccccc1 (stereo not drawn) | -23 | x | -2 | i | 17 | 1 | 3 | -1
CCc1ccccc1Oc1ccc(S(=O)(=O)N2CCN(C)CC2)cn1 | -2 | -12 | x | i | 2 | x | -2 | 2
CCN(CC(=O)Nc1cccc(OC)c1)C(=O)C1CC(=O)N(Cc2ccccc2Cl)C1 (stereo not drawn) | x | -7 | x | x | 12 | x | 1 | 5
Cc1cc(C(=O)CSc2nc(N)cc(N)n2)c(C)n1-c1cccc(F)c1 | -3 | -5 | 7 | i | x | 22 | 9 | -6
C[C@@H]1CN([C@@H](C)CO)C(=O)CCCn2nncc2CO[C@@H]1CN(C)S(=O)(=O)c1ccc(C#N)cc1 | x | -14 | x | x | -40 | x | -1 | 1
NC(=S)N/N=C/c1ccc([N+](=O)[O-])cc1 | x | -8 | -7 | i | -26 | 16 | 4 | 4
O=C(Cc1ccccc1)NNC(=O)Cc1ccccc1 | -33 | 1 | 3 | i | -2 | -4 | -2 | 4
CCOC(=O)Cc1csc(N(C)C)n1 | 0 | x | 1 | i | -10 | 12 | -3 | 2
Cc1cc(C)cc(N(C(=O)CNS(=O)(=O)c2ccccc2)C(C(=O)NCc2ccccc2)c2ccc(C)o2)c1 (stereo not drawn) | 1 | -6 | -16 | i | x | 1 | -1 | 4
S=C(Nc1ccccc1)Nc1ccccc1-n1cccc1 | x | -22 | 2 | i | -6 | 1 | -1 | 11
O=C(CNC(c1ccccc1)c1ccccc1)Nc1ccc(F)cc1 | -2 | x | 7 | i | -2 | 2 | -2 | 1
Cn1ncc2c(c(SCc3ccc(Cl)cc3Cl)nn2C)c1=O | -7 | x | -4 | i | 5 | -6 | -5 | -6
Continued.
SMILES | CSC inhib | Yeast UUG start | PABP polyA inh | Rce1 inhib | Env fusion inh | eIF4H inh | MT1-MMP act inh | MT1-MMP act inh RFP | others
CS(=O)(=O)Nc1cccc(NC(=O)C2Cc3c(-c4cccc(F)c4)ccnc3O2)c1 (stereo not drawn) | x | -14 | x | x | -129 | x | -2 | -6
O=C(Cc1ccc(Cl)c(Cl)c1)NNC(=S)NCC1CCCO1 (stereo not drawn) | -4 | -35 | 17 | i | -3 | 0 | 1 | 0
CC(C)(C)C(=O)Oc1cccc(Nc2ncnc3ccccc23)c1 | 25 | -14 | -8 | i | 14 | 0 | -4 | -6
COc1cccc(-n2c(Cc3cc(=O)[nH]c(=O)[nH]3)nnc2SCC(=O)Nc2ccccc2)c1 | -7 | 5 | -4 | x | -4 | 3 | -4 | 3
Cc1c(Cl)cccc1NC(=O)CCC(=O)N/N=C/c1ccc[nH]1 | 38 | x | 9 | i | x | 4 | -20 | -30
CC(=O)Nc1ccc(S(=O)(=O)N(C)CC(=O)N/N=C/c2ccc(C(=O)O)cc2)cc1 | -17 | -11 | 8 | i | -6 | -11 | -1 | 3
CCNC(=O)COc1ccc(OCc2ccccc2)cc1 | 1 | -21 | 6 | i | -14 | 3 | -6 | -12
COc1ccccc1NC(=O)C1CCN(S(=O)(=O)c2ccc3c(c2)NC(=O)CO3)CC1 | 0 | -14 | 5 | i | -12 | -6 | -3 | -3
O=[N+]([O-])c1ccc(N/N=C/c2c[nH]c3ccccc23)c(S(=O)(=O)Nc2ccc(Cl)cc2)c1 | 101* | -15 | -2 | i | 13 | -7 | -82 | -8
Cc1cccc(CCN2CCN=C2Nc2ccccc2)c1 | -1 | -11 | x | x | -18 | x | 1 | 3
CCC(=O)Nc1ccc(NC(=O)c2cccc3c(Br)cccc23)cc1 | -10 | -5 | -7 | i | 9 | -1 | 5 | 0

Entries listed so far with an NH in an aromatic ring:
SMILES | CSC inhib | Yeast UUG start | PABP polyA inh | Rce1 inhib | Env fusion inh | eIF4H inh | MT1-MMP act inh | MT1-MMP act inh RFP | others
CCOC(=O)c1nc(-c2ccc3c(c2)OCO3)[nH]c1C | 17 | -7 | -9 | i | -174 | 2 | -3 | -1
S=c1nc(NCc2cccc(Cl)c2)c2ccccc2[nH]1 | x | -9 | -4 | i | 18 | 0 | -6 | -9
COc1ccc(OC)c(NC(=O)COC(=O)c2n[nH]c3ccccc23)c1 | -6 | -12 | x | x | 5 | x | 0 | -8
Cc1ccc2nc(SCC(=O)N(CC(C)C)c3c(N)n(CC(C)C)c(=O)[nH]c3=O)[nH]c2c1 | -9 | -15 | 10 | i | x | 3 | 2 | 8
Cc1cn([C@H]2C[C@H](O)[C@@H](CCC(=O)NCc3ccco3)O2)c(=O)[nH]c1=O | x | -16 | x | x | 4 | x | 2 | 8
CC(C)(C)OC(=O)NCc1ccc(NC(=O)c2nc[nH]c2C(=O)NCCCCNC(=O)c2[nH]cnc2C(=O)Nc2ccc(CNC(=O)OC(C)(C)C)cc2)cc1 | 120* | -14 | x | x | x | x | -13 | -1
CCN(c1ccc(NC(=O)CCc2nc3sc4c(c3c(=O)[nH]2)CCCC4)cc1)C(C)C | u | -3 | x | i | 7 | x | 3 | 1
COc1cccc(-n2c(Cc3cc(=O)[nH]c(=O)[nH]3)nnc2SCC(=O)Nc2ccccc2)c1 | -7 | 5 | -4 | x | -4 | 3 | -4 | 3
Cc1c(Cl)cccc1NC(=O)CCC(=O)N/N=C/c1ccc[nH]1 | 38 | x | 9 | i | x | 4 | -20 | -30
O=[N+]([O-])c1ccc(N/N=C/c2c[nH]c3ccccc23)c(S(=O)(=O)Nc2ccc(Cl)cc2)c1 | 101* | -15 | -2 | i | 13 | -7 | -82 | -8
